Screening results (PubChem)
Sfp PPTase inh – inhibitors of Bacillus subtilis Sfp phosphopantetheinyl transferase. Potency, µM, for the others: max response, negative = inhibition, actives largely listed as inhibitors. actives 3.5% (n = 310,000). Biochemical Sfp PPTase activity, qHTS. Q9F4F7; active = well fitted inhibition curve with a large enough effect; inconclusive = small, poorly fitted or top-dose-only effect, or another doubt; inactive = no such curve, though single readings can be large or run the other way;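 note: the enzyme is Sfp with the accession as filed and its product quenches rhodamine fluorescence; potency is the fitted concentration of half-maximal effect; 0% = enzyme reaction without inhibitor and -100% = no enzyme wells; top concentration of the series not given in the record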
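Fluorescence-quenching assay with 15 nM Sfp, 5 uM rhodamine-CoA and 12.5 uM BHQ-2-labelled ybbR peptide in pH 7.6 Hepes/MgCl2 buffer. Enzyme was pre-incubated with compound for 15 min at room temperature. Rate was taken from the 30-min fluorescence change (525/598 nm).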
Menin MLL FP FL – displaces fluorescein MLL peptide from human menin; FP activity change, % at 61.4 µM; 290,000 tested, under 10 active; Fluorescence polarization, fluorescein-MLL peptide displacement from menin; inconclusive = falling polarisation curve, or a change in total fluorescence; inactive = total fluorescence flat and polarisation flat or rising; no compound was filed as active; the % refers to the polarisation; negative = inhibition;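 note: % of control where 0% means no effect; inhibitors lower the polarisation; unlabelled MLL peptide was the positive control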
gsp agonist – activates gsp, the McCune-Albright syndrome mutation; Potency, µM (series often up to 76.9 µM), for the others: top-dose activation (cAMP increase), actives largely listed as activators; AID 624287; gsp mutant cells, cAMP HTRF, 30 min; control for the full effect not named in the record; actives 0.13% (n = 340,000); active = well fitted activation curve with a large enough effect; inconclusive = small, poorly fitted or top-dose-only effect, or another doubt; inactive = no such curve, though single readings can be large or run the other way; cell line not stated here;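 note: phosphodiesterase inhibitor Ro 20-1724 added with compounds to block cAMP breakdown; potency is the fitted concentration of half-maximal effect; nearly all actives have a fitted effect of over 60% in size; about a fifth of the inactives were tested at one dose only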
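Cells stably selected in G418 were plated at 2000/well, grown 16-24 hr, then given compounds in DMSO with the PDE inhibitor […] (300 uM solution added) for 30 min at 37C; cAMP was read by HTRF.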
TRPV1 PAM – potentiators of human vanilloid receptor 1 (TRPV1) | Q8NER1 | TRPV1-expressing cells, Fluo-8 calcium influx, capsaicin EC20 potentiation; host cell line not named in the record; control for the full effect not named in the record | potentiation, % at 8.33 µM | actives 0.02% (n = 320,000) | AID 540277; active means potentiation above 80%; inconclusive means 30% to 80%; inactive means below 30%; note: 0% is about no effect
Target sequence (Q8NER1 whole entry, looked up): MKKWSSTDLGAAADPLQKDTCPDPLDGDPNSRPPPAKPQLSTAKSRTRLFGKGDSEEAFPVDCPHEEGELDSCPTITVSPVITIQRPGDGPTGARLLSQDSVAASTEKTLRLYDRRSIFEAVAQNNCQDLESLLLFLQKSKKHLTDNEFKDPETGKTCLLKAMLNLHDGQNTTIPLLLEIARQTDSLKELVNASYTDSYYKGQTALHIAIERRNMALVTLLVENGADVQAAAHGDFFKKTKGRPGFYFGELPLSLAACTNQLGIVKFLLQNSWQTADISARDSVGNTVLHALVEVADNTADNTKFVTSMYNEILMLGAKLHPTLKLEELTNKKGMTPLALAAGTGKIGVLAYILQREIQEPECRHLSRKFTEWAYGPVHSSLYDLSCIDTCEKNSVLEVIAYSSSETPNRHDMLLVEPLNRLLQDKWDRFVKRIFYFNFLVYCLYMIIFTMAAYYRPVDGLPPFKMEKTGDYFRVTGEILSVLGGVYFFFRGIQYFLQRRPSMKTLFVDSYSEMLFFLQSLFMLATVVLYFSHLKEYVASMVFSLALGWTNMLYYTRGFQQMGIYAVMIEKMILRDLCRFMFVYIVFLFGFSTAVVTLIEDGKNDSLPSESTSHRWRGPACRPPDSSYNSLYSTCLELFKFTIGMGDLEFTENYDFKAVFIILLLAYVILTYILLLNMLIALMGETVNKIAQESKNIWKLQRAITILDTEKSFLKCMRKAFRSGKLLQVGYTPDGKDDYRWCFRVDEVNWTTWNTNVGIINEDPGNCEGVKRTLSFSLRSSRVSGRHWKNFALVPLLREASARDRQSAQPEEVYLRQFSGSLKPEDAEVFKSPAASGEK
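TRPV1-expressing cells were cultured overnight at 35.5C and loaded with Fluo-8 calcium dye for 40 to 90 min at room temperature. After a 10 s baseline, compound was added and calcium influx was read kinetically for 3 min (ex 480/em 520 nm).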
CtBP-E1A blk – CtBP/E1A binding inhibition; AlphaScreen GST-E1A/His-CtBP binding, 1536-well; active compounds read low; control for the full effect not named in the record; activity change, % (concentration not given with the values); actives 0.49% (n = 340,000); in the data active means activity change below about -65%; inconclusive means about -30% to -65%; inactive means above about -30%; note: % is set by controls: 0 for no effect and ±100 for the full control effect
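AlphaScreen with 125 nM GST-E1A and 125 nM His-CtBP (5X stocks) in Tris pH 8.0, 300 mM NaCl, BSA, Tween 20, TCEP. Compounds preincubated 2 h at 37 deg C, then glutathione donor/nickel acceptor beads added for 1 h at 37 deg C in dark.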
gsp antag – antagonizes gsp, the McCune-Albright syndrome mutation. gsp-mutant cells, cAMP HTRF, 30 min; control for the full effect not named in the record. Potency, µM (doses to about 76.9 µM), for inactives: at the top dose activity change, negative = inhibition, most hits filed as inhibitors. actives 0.4% (n = 340,000); active = falling curve of any shape with a large fitted effect; inconclusive = falling curve, mostly with a smaller effect; inactive = flat or rising curve; cell line not stated here;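 note: intracellular cAMP measured with PDE inhibitor Ro 20-1724 present during compound exposure; potency is the fitted concentration of half-maximal effect; % is set by controls: 0 for no effect and ±100 for the full control effect; nearly all actives have a fitted effect of over 65% in size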
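G418-selected cells were plated in DMEM/10% FBS for 16-24 h at 37C, then treated with compounds plus the PDE inhibitor […] (300 uM solution added) for 30 min at 37C. Intracellular cAMP was measured by HTRF after 30 min lysis at room temperature.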
ClpP mod – qHTS Assay for Activators of ClpP; actives 1.9% (n = 340,000); Potency, µM (doses to about 57.5 µM), for inactives: at the top dose activity change, negative = active; purified B. subtilis ClpP, FRET peptide cleavage, 20 min; AID 651965, 2013; active = well fitted falling curve with a large enough effect; inconclusive = small, poorly fitted or top-dose-only effect; inactive = no such curve, though single readings can be large or run the other way; note: potency is the fitted concentration of half-maximal effect; the source files actives as falling curves though it sought activators and does not explain the sign; nearly all actives have a fitted effect of over 65% in size; many hits overshoot -100%
Target sequence (P80244 whole entry, looked up): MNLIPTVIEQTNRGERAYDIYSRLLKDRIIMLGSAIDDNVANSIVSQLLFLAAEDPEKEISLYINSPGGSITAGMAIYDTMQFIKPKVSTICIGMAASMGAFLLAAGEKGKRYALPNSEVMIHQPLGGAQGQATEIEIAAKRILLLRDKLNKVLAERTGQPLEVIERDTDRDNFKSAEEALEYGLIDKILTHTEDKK
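FRET quenching reversal measured ClpP activation: 10 microg/mL B. subtilis ClpP at pH 8 with the FRET-FV decapeptide, read at 430 nm after 320 nm excitation. The 20-min minus 0-min signal was scaled between DMSO/no-enzyme wells and ADEP (5.8 microM final).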
An asterisk follows results filed as active; ? = inconclusive; / = no result given; & = joins results of further samples; [ ] = dose if it differs, or a comment.

smiles | gsp antag | Menin MLL FP FL | TRPV1 PAM | gsp agonist | CtBP-E1A blk | Sfp PPTase inh | ClpP mod
Cc1c(C(=O)N2CCCCC2)c(S(=O)(=O)NCc2ccccc2Cl)c(C)n1C | 6% | 1.6 | 4 | ? | 4 | 17% | 0.2%
CN(C(=O)c1cccc(NC(=O)Cc2ccc(NC(=O)C3CCCN(C(=O)C4CCCCC4)C3)cc2)c1)C1CCCCC1 (centres undefined) | -18% | / | / | / | -25 | / | -2.4%
COCCCNC(=O)CSc1nc2ccccc2c(=O)n1CCCN1CCCCC1 | 4% | -0.1 | -11 | 6% | / | 9% | -0.2%
CC(=O)c1ccc(S(=O)(=O)Nc2cccc(-c3cn4c(n3)SCC4)c2)cc1 | -13% | 0.3 | -2 | 7%[15.4 µM] | -7 | -8% | /
O=C(c1ncn[nH]1)N1CCN(c2nc(-c3ccccc3)cs2)CC1 | 6% | 8.3 | -2 | ? | ? | ? | -2.3%
CC(=O)Nc1cccc(C(=O)NC2CCCc3c2cnn3-c2ccc(C(C)(C)C)cc2)c1 (centres undefined) | ? | -1.5 | -10 | ? | 2 | 3% | 0.4%
COc1ccc(Cn2c(=O)oc3ccccc32)cc1F | 2% | -1.0 | -5 | 6%[15.4 µM] | 10 | -2% | -2.6%
COc1cc(NC(C)CCCN)c2ncccc2c1Oc1ccccc1 (centres undefined) | 4% | 3.1 | 0 | -10%[15.4 µM] | 2 | -28% | ?
CSc1ccc(C(=O)N2CCC(n3nccc3NC(=O)C3CC3)CC2)cc1 | 6% | / | 3 | 2% | -14 | 2% | -3.5%
Cc1cccc(C)c1NC(=O)CS(=O)CC(=O)NC1CCN(Cc2ccccc2)CC1 (centres undefined) | 5% | -1.8 | 8 | -8% | 10 | 15% | -2.4%
Cc1cc(Nc2cccc(Cl)c2C)n2ncnc2n1 | -8% | 2.0 | 0 | -30% | 0 | 3% | -2.7%
Cc1ccc(-c2nc(NC(=O)CSc3nnc(C)s3)ns2)cc1 | -15% | -3.1 | / | 24% | -15 | 0% | -22%
O=C(c1ccc(S(=O)(=O)N2CCCC2)cc1)N(Cc1ccco1)C1CCS(=O)(=O)C1 (centres undefined) | 2% | -1.0 | -7 | -62%[inhibitor] | / | 23% | -1.6%
COc1ccc(C(=O)N/N=C/C(Br)=C/c2ccccc2)cc1 | -25% | 4.5 | -12 | 13%[15.4 µM] | ? | -19% | -2.5%
CCSc1ccccc1C(=O)Nc1cc(C)on1 | -3% | 0.8 | -4 | -7% | 1 | 5% | -1.7%
CCN(C(=O)C1CCCN(c2ncnc3c2nc2n3CCCCC2)C1)c1cccc(Cl)c1 (centres undefined) | 2% | 4.9 | 1 | 21% | / | -7% | 1.9%&0.3%
COc1ccc(NC(=O)CSc2nnc(-c3ccncc3)n2C)cc1 | 17% | 1.1 | -2 | 30% | -19 | 13% | /
O=C(c1ccc(F)cc1)C1CCN(C(=O)N2CCOCC2)CC1 | 7% | 0.8 | -10 | -14% | 10 | -1% | 0.6%
CCn1nc(C(=O)OCC(=O)NC(C)C)c2ccccc2c1=O | 0% | -3.1 | 11 | -10%[15.4 µM] | -1 | 6% | /
O=C(NC(=S)Nc1ccc(N2CCCCC2)cc1)c1cccs1 | -5% | 6.6 | -20 | 3% | ? | ? | 0.7%
COC(=O)c1ccc2c(=O)[nH]c(COC(=O)c3cccc(S(=O)(=O)N4CCOCC4)c3)nc2c1 | ? | / | 13 | 28%[15.4 µM] | 2 | / | /
Cc1nnc(NC(=O)c2ccc3c(c2)C(=O)N(CC2CCCO2)C3=O)s1 (centres undefined) | -13% | -1.6 | -5 | -2% | 3 | 12% | -1.0%
COc1ccc(-c2ccc(SCC(=O)NCc3ccco3)nn2)cc1 | 2% | 5.4 | 7 | 5% | -1 | 6% | -2.9%
CCOC(=O)c1c(C2CC2)csc1NC(=O)COC(=O)c1cnc(Cl)c(Cl)c1 | ? | 6.4 | -5 | -42%[inhibitor] | 4 | 6% | -5.9%
O=C(COc1ccc(Cl)cc1)NCCCNC(=O)c1ccccn1 | -5% | ? | 1 | ? | -3 | 16% | /
O=C(CC12CC3CC(CC(C3)C1)C2)NCO | -5% | 18 | 0 | ? | -5 | 5% | -2.1%
CCOC(=O)c1csc(COc2ccccc2Cl)n1 | -10% | 8.3 | -8 | -1% | / | 7% | 1.3%
CCc1cccc(NC2c3ccccc3C(=O)N2c2ccc(C)cn2)c1 (centres undefined) | -16% | 4.2 | 0 | -5% | 1 | 3% | -0.2%
COC(=O)c1ccccc1S(=O)(=O)N(CCCO)Cc1cc2c(C)ccc(C)c2[nH]c1=O | -5% | 9.2 | -4 | -79% | -4 | 6% | ?
CNC(=O)c1ccc(Nc2nc(-c3ccccc3)nc3ccccc23)cc1 | -30% | 1.6 | -15 | 11%[15.4 µM] | 0 | 2% | /
C=C(C)CN(CC)C(=O)CSc1nc(O)cc(=O)n1C1CCCC1 | -12% | 3.4 | -12 | -12% | -19 | 11% | -3.1%
Cc1cc(N=Nc2ccc3ccccc3c2)ccc1O | 6% | -2.0 | 0 | -1%[15.4 µM] | -14 | 12% | -78%
CC(=O)N/C(=C\c1ccccc1)C(=O)OC(C)C(=O)Nc1ccccc1F (centres undefined) | 3% | / | -3 | -26% | / | / | 1.3%
CC1(C(=O)O)Cc2ccccc2C(=O)O1 (centres undefined) | 17% | -2.0 | -8 | 23% | 7 | 14% | -0.3%
CCOC(=O)c1cc2c(nc1C)-c1cc(Cl)cc(Cl)c1OC2O (centres undefined) | -6% | 0.6 | -5 | 7% | / | 9% | -7.2%
NC(=O)c1cc([N+](=O)[O-])ccc1NCCc1ccccc1 | -10% | 4.3 | 4 | -22% | / | 0% | 1.1%
O=C1CC(c2ccc(F)cc2)Cc2nc(NCC3CCCO3)ncc21 (centres undefined) | -9% | 4.2 | -11 | -16% | 0 | 10% | -6.9%
O=C(NCc1ccc2c(c1)OCO2)c1cc(=O)[nH]c2ccccc12 | 6% | 7.9 | -2 | -19% | 1 | -11% | -7.1%
Cc1ccc(S(=O)(=O)N2CCCCC2)cc1C(=O)NCCN1CCOCC1 | 6% | / | 1 | 16% | 2 | / | -1.1%
CCn1cc(C2=NOC(C(=O)Nc3c(C)nn(Cc4ccc(F)cc4)c3C)C2)c(C)n1 (centres undefined) | 1% | -1.2 | 0 | -25% | 6 | 14% | 0.9%
C/C(=N\NC(=O)CNC(=O)c1ccco1)c1ccc(Br)cc1 | -5% | / | -2 | 13%[15.4 µM] | 1 | 0% | /
CCOC(=O)C1CCCN(C2CC(=O)N(c3cccc(C(F)(F)F)c3)C2=O)C1 (centres undefined) | -1% | 4.0 | -7 | -9% | 2 | 50µM* | 0.1%
C=CCn1c(NCc2ccc(OC)cc2O)nc2ccccc21 | -13% | -3.1 | 12 | ? | -3 | 0% | 1.4%
Cc1ccc(S(=O)(=O)N2CCN(S(=O)(=O)N3CCCCCC3)CC2)cc1 | -9% | 1.6 | -10 | -29% | 1 | 8% | /
N#CCC(=O)Nc1ccc(C(=O)Nc2cccc(S(N)(=O)=O)c2)cc1 | -3% | 11 | -1 | -1%[15.4 µM] | 0 | 25% | /
Cc1nn(CC#N)c(=O)n1-c1ccc(Cl)cc1 | -13% | -1.5 | 16 | -16%[15.4 µM] | 14 | 4% | /
Cc1ccc(NC(=O)c2cc(S(=O)(=O)N(C)C)ccc2N2CCCC2)cc1S(=O)(=O)N(C)C | 4% | / | -1 | ? | -1 | / | -9.0%
Cc1cc(C(=O)CC#N)c(C)n1CC(F)(F)F | 4% | 2.5 | -1 | 7% | 0 | 2% | 0.8%
CC1CN(C(=O)N2c3ccccc3Sc3ccccc32)CC(C)O1 (centres undefined) | -13% | 42[activator] | -7 | -15% | -2 | -20% | -4.3%
O=C(NCc1ccco1)c1c(F)c(F)c(F)c(C(=O)NCc2ccco2)c1F | / | -0.3 | 5 | 2%[15.4 µM] | 0 | 6% | /
Clc1ccccc1-c1nn2c(Cn3cnc4ccccc43)nnc2s1 | 2% | 0.0 | -3 | -2%[15.4 µM] | -3 | 45µM* | -0.6%
COc1cccc(-c2nc(N3CCCC3)c3ccccc3n2)c1O | -6% | 1.1 | / | -1%[15.4 µM] | -3 | -15% | /
Cc1ccc(C)c(OCC(=O)NNC(=O)CSC(=S)N2CCCC2)c1 | 4% | / | 12 | ? | 9 | / | 1.0%
Cc1ccc(Cl)cc1N1CCN(C(=O)Cc2csc(Nc3nc(=S)[nH]c4ccccc34)n2)CC1 | -36% | 7.1 | 12 | 12%[15.4 µM] | -15 | 10% | /
COc1ccc(CNc2cc(C)nc3ccc(OC)cc23)cc1 | 17% | 0.6 | -7 | -13%[15.4 µM] | -13 | -27% | /
CCN(CC)c1ccc(/C=C(\C#N)C(=O)c2ccc(Br)cc2)cc1 | -8% | ? | 20 | -33%[inhibitor] | -23 | -10% | -2.2%
COc1ccc(S(=O)(=O)NCC(c2ccc3c(c2)OCO3)N2CCOCC2)cc1 (centres undefined) | -3% | / | -11 | -24% | 8 | / | -1.0%
O=C(Nc1ccc(Cl)cc1)N1CCC(c2nc(-c3cccs3)no2)CC1 | ? | 3.1 | 14 | 9% | 4 | -4% | -3.6%
O=C(CCN1C(=O)CSc2ccccc21)Nc1cccc(C(F)(F)F)c1 | -1% | / | -3 | 4% | 1 | / | -0.2%
CC(SCc1ccccc1)C(=O)Nc1ccccc1F (centres undefined) | -3% | -0.2 | 4 | -65%[inhibitor] | / | -4% | -1.3%
